miR-21 FLuc: qHTS Assay for Modulators of miRNAs and/orActivators of miR-21; 340,000 tested, under 10 active; Potency, µM (titrated, usually from 38.3 µM), inactives show at the top dose reporter change, positive = more light; HeLa miR-21 FLuc reporter, luciferase, 48 h; active = well fitted rising curve with a large enough effect; inconclusive = small, poorly fitted or top-dose-only effect; inactive = no such curve, though single readings can be large or run the other way;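 note: % of control where 0% means no effect; miR-21 action dims this reporter so a rising signal means less miR-21 action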
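Compounds were titrated across several concentrations (up to approximately 40 uM) and incubated 48 hours with HeLa miR-21-FLuc reporter cells (miR-21 target sequence downstream of FLuc, endogenous miR-21). Readout was firefly luciferase luminescence after lytic detection reagent.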
Rango dissoc inh: qHTS Assay for Inhibitors of RanGTP induced Rango (Ran-regulated importin-beta cargo) - Importin beta complex dissociation; Snurportin-1 (Homo sapiens) + GTP-binding nuclear protein Ran (Homo sapiens) + Importin …; Biochemical FRET Rango-importin beta, RanGTP-induced dissociation; Potency, µM (series often up to 46.1 µM), inactives show at the top dose activity change, negative = inhibition; hit rate 0.071% among 340,000; active means falling FRET ratio curve, often poorly fitted, with flat reads before Ran was added; inconclusive means other falling curves, or compound fluorescence or quenching; inactive means flat or rising ratio curve;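 note: potency is the fitted concentration of half-maximal effect; % of control where 0% means no effect; nearly all actives have a fitted effect of over 45% in size; -100% = wells without RanGTP and RCC1; the record marks most hits as doubtful in a second field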
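Rango FRET biosensor (snurportin-1 IBB flanked by N-terminal EYFP and C-terminal CFP10) at 0.1 uM, with 0.25 uM importin beta in PBS, 1mM DTT, 0.02% Tween-20, 0.1% BSA. 0.6 uM Ran, 2mM GTP and 0.2 uM RCC1 were then added for 45 min at room temperature. Inhibition read as loss of FRET rise.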
GLA inh pH 4.5: qHTS Assay for Inhibitors of Human alpha-Galactosidase at pH 4.5. Alpha-galactosidase A (Homo sapiens), P06280. purified enzyme, 4-MU-alpha-Gal fluorescence, pH 4.5. activity change, negative = inhibition, % at 105 µM. 230,000 tested, under 10 active; inconclusive = small, poorly fitted or top-dose-only inhibition, or a rising curve; inactive = flat fitted curve, though single readings scatter; no compound was filed as active;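 note: 0% = full activity with enzyme and -100% = basal without enzyme; dose as in the result columns while the protocol names 77 µM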
Rango complex inh: qHTS Assay for Inhibitors of Rango (Ran-regulated importin-beta cargo) - Importin beta complex formation; Rango CFP/YFP FRET sensor + importin beta, 45 min; Importin subunit beta-1 (Homo sapiens), Q14974; Potency, µM (series often up to 92.2 µM), inactives show top-dose inhibition of complex formation; hit rate 0.031% among 340,000; active = rising FRET ratio curve, often small or poorly fitted; inconclusive = mostly compound fluorescence or quenching in the first reads; inactive = flat curves in all reads;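 note: potency is the fitted concentration of half-maximal effect; 0% = DMSO wells and 100% = buffer wells lacking importin beta; nearly all actives have a fitted effect of over 15% in size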
Target sequence (Q14974 whole entry, looked up): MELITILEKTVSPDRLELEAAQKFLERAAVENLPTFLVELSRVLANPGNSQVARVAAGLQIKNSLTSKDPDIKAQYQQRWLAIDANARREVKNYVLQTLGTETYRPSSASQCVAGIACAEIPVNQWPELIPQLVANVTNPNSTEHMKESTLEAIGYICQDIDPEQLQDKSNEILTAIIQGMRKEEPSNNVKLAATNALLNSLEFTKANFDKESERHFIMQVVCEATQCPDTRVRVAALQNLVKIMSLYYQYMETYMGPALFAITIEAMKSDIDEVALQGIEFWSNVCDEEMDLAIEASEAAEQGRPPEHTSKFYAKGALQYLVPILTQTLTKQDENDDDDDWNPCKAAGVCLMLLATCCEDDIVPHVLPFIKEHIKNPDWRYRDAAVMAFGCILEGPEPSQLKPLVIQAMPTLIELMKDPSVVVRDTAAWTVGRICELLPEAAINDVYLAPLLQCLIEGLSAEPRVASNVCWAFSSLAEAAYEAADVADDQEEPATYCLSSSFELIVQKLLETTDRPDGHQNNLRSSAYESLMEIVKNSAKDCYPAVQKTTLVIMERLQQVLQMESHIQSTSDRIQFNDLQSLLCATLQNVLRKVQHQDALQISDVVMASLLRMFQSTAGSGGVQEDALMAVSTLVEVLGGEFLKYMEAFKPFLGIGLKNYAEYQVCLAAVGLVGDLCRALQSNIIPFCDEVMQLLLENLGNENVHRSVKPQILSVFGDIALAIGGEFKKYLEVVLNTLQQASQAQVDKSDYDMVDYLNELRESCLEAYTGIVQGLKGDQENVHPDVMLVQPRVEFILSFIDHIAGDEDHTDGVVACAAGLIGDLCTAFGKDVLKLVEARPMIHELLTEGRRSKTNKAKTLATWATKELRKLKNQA
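FRET biosensor (snurportin 1 IBB flanked by EYFP and cerulean), 50 nM, with compound 5 min, then 0.125 microM importin beta in PBS, 1 mM DTT, 0.02% Tween-20, 0.1% BSA. CFP/YFP ratio read after 45 min at room temperature; pre-read flags interference.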
* marks the source's active call; other numbers are inactive results; ? = inconclusive; . = no result given; & = joins results of further samples; [ ] = another dose, or the depositor's remark. Not all compounds are listed; the hit share may differ from the screen's.

Rango dissoc inh	GLA inh pH 4.5	miR-21 FLuc	Rango complex inh	structure
-8%	0	0%	-0.4%	CCOC(=O)C1CCCN(C(=O)c2cc3ccccc3oc2=O)C1 (centres undefined)
8%	-17	1%	3.4%	Cc1ccccc1C(=O)Nc1cc(-c2cc(C(C)(C)C)oc2C)nn1C
6%	5	-6%	-1.2%	Cc1nn(Cc2c(F)c(F)c(F)c(F)c2F)c(C)c1NC(=O)c1ccc(COc2ccccc2Cl)cc1
-8%	.	8%&2%	-1.1%	Cc1ccccc1CS(=O)(=O)Cc1ccc(C(=O)NCCc2ccccc2)o1
19%	.	4%	-0.6%	Cc1ccc(NC(=O)NC(=O)CN2CCN(c3ccc(O)cc3)CC2)c(C)c1
-10%	-6	-5%	1.7%	N#CC1=C(N)NC(SCC(=O)O)=C(C#N)C12CCCC2
1%	-4	1%	-0.8%	O=C(Nc1ccc(-c2csc(-c3ccccc3)n2)cc1)c1ccccc1
5%	-10&0	-3%	3.8%	CC1(C)[C@@H](O)CC[C@]2(C)[C@H]3C(=O)C=C4[C@@H]5C[C@@](C)(C(=O)O)CC[C@]5(C)CC[C@@]4(C)[C@]3(C)CC[C@@H]12
-21%	-14	?	-2.0%	COc1ccc(-c2nc(NC(=O)c3cc(C(C)(C)C)nn3C)sc2C)cc1
-8%	.	-14%	-3.9%	c1ccc(Cn2nnc3ccccc32)cc1
-1%	12	-3%	0.9%	O=C(CNC(=O)c1ccc(S(=O)(=O)N2CCCCC2)cc1)N/N=C/c1ccco1
-2%	.	.	?	O=[N+]([O-])c1ccc(C=NNC(=S)NN=Cc2ccc([N+](=O)[O-])cc2)cc1
0%	-2[21.1 µM]	-4%	-0.6%	COc1ccc(C(C)=O)cc1CSc1nncn1C
9%	.	6%	-2.5%	CC(=O)Nc1ccc(S(=O)(=O)NC2CCSc3ccccc32)cc1 (centres undefined)
.	-2	-1%	.	COc1cccc(-n2nnnc2SCC(=O)c2cc(OC)ccc2OC)c1
3%	.	-24%&-48%	-1.6%	O=C(Nc1nnc(S(=O)(=O)Nc2ccccc2)s1)c1ccccc1Cl
-21%	.	.	-2.8%	COc1cc(OC)c(OC)cc1/C=C/C(=O)OCC(=O)Nc1c(C)n(C)n(-c2ccccc2)c1=O
-13%	-8	-1%	3.8%	COc1cc(NC(=O)SC2=NCCS2)cc(OC)c1
-12%	6	3%	0.1%	CC1CN(S(=O)(=O)c2cccc(C(F)(F)F)c2)CC(C)O1 (centres undefined)
1%	.	-9%	-4.3%	Cc1ccc(S(N)(=O)=O)cc1NC(=O)c1ccc2c3c(cccc13)CC2
5%	2	-18%	1.9%	Cc1ccc(C(=O)NCC2CCCO2)cc1[N+](=O)[O-] (centres undefined)
-20%	.	.	0.7%	COC1=CC(=O)C(C2CC(=O)c3c(O)cc(O)cc3O2)=CC1=O (centres undefined)
-5%	.	.	-0.4%	COc1ccc(-c2cc(C(=O)N(C)CC(=O)Nc3ccccc3Br)c3ccccc3n2)cc1OC
-4%	-1	-1%	-1.6%	COC(=O)c1ccc(C(=O)OC)c(NC(=O)CSCc2ccc(Cl)cc2)c1
7%	.	.	-2.1%	C=CC[C@H](CC(=O)N(CCO)Cc1ccccc1)C(=O)N[C@H](COC(=O)[C@H](CC=C)CC(=O)OC(C)(C)C)Cc1ccccc1
-6%	-7	-44%	?	N#Cc1nc(COc2ccc(Cl)cc2Cl)oc1N1CCOCC1
-25%	4	-12%	-1.9%	COCCN1C(=O)c2oc3ccccc3c(=O)c2C1c1ccc(O)c(OC)c1 (centres undefined)
1%	.	.	-0.3%	CCOc1ccc(N2C(=O)c3ccccc3NC2(C)CC)cc1 (centres undefined)
0%	.	.	-0.9%	N#Cc1ccc(OCC(=O)Nc2nc(-c3cccnc3)cs2)cc1
-8%	-9	-10%	-2.1%	O=C(Nc1ccc2c(c1)OCO2)N1CCN(S(=O)(=O)c2ccc(Cl)cc2)CC1
-2%	2	1%	0.5%	COC(=O)Cc1cc(=O)n2[nH]c(SC)nc2n1
9%	-5	-27%	0.6%	N#C/C(=N/Nc1ccc([N+](=O)[O-])cc1)C(=N)N1CCCCC1
-7%	.	6%	0.5%	O=C(CSc1n[nH]c(Cc2ccccc2)n1)Nc1ccccc1Br
-14%	2	-2%	1.4%	CCN(CC)C(=O)c1cc(Cl)ccc1NC(=O)c1ccco1
8%	.	-5%	-2.2%	CCOc1cccc(-c2c(C(=O)N/N=C/c3ccc(Br)cc3)nnn2-c2nonc2N)c1
18%	-2	-7%	-6.4%	COc1cccc(/C=N/NC(=S)NCc2ccco2)c1OC
5%	8	1%	-1.7%	Clc1ccccc1CN1CCC(Cc2ccccc2)CC1
41%	.	.	2.9%	O=C(NCCC1CCCCN1S(=O)(=O)c1ccccc1)C(=O)NC1CCCC1 (centres undefined)
-4%	-6	-9%	3.7%	Cc1ccc(C(=O)NNC(=O)CSc2nnc(-c3ccccc3)n2Cc2ccccc2)cc1
6%	.	.	-2.5%	COc1ccc(Cl)cc1NC(=O)C1CCN(C(=O)Nc2ccccc2)CC1
-6%	.	0%	0.0%	CC(C)n1nccc1N(Cc1ccc(Cl)cc1)S(=O)(=O)c1ccccc1
0%	.	-1%	2.0%	O=C(CCc1nnc2ccc(NCc3ccc(F)cc3)nn12)NC1CCCC1
-15%	-15	-17%	3.0%	CC(=O)C1=C(O)CC(c2ccccc2)CC1=NCCc1c(C)[nH]c2ccccc12 (centres undefined)
5%	.	3%	-3.2%	CC1(C(=O)NNC(=O)c2ccc([N+](=O)[O-])cc2)CC1(Br)Br (centres undefined)
6%	-1	-61%	1.4%	O=C(NCc1cccnc1)c1cc(-c2ccccc2)on1
7%	-2	-9%	-0.4%	NC(=O)C1CCN(C(=O)CSc2nc3ccccc3s2)CC1
-17%	.	-3%	-0.7%	O=S(=O)(NC1CC2CCC1C2)c1ccc(Cl)cc1 (centres undefined)
1%	.	-1%	3.2%	CC(C)CC(=O)Nc1ccc2c(c1)nc(CCN1CCCCC1)n2C
-2%	.	.	0.5%	COc1cc(NC(=O)c2ccccc2)c(OC)cc1NC(=O)CN1C(=O)NC2(CCCCC2)C1=O
-14%	.	.	3.8%	CC(=O)N(Cc1ccccc1)c1c(N)nc(N)[nH]c1=O
1%	-2	-13%	-0.2%	CCCc1ccc(Oc2cc(C)nc(N3CCOCC3)n2)cc1
-7%	.	.	0.2%	COc1ccc(-c2c(C#Cc3ccsc3)c3cc(-c4ccc(CN5CCOCC5)cc4)ccc3n2C)cc1
14%	.	3%	1.8%	Cc1ccc(CNS(=O)(=O)c2ccc3c(c2)N(C)CCO3)cc1
4%	2	1%	-3.2%	CC(C)OCCCNC(=O)C1CCC(=O)N1C1CCCC1 (centres undefined)
4%	0	-28%	5.3%	Cc1ccc2nc(N3CCOCC3)c3nncn3c2c1
1%	.	.	1.7%	CCOC(=O)Cc1c[nH]c2ccc([N+](=O)[O-])cc12
4%	1	-8%	0.0%	Cc1ccc(NC(=S)N/N=C/c2c(C)nn(-c3ccccc3)c2N2CCCC2)cc1
-25%	11	-4%	?	CCOC(=O)c1c(/N=C/c2ccc(C)cc2O)sc2c1CCN(C)C2
18%	.	.	-1.0%	O=C(NNS(=O)(=O)c1ccccc1Cl)C1COc2ccccc2O1 (centres undefined)
-9%	-18	-3%	4.8%	COC(=O)COc1ccc(S(=O)(=O)Nc2ccccc2C(=O)OC)cc1

Going on with the list:
Rango dissoc inh	GLA inh pH 4.5	miR-21 FLuc	Rango complex inh	structure
-2%	.	-26%	0.0%	O=C(Nc1cccc(Cl)c1)NC1CC2CCC1C2 (centres undefined)
-6%	0	-2%	0.0%	Cc1cc(NC(=O)COn2nnc3ccc(Cl)cc32)no1
11%	.	-2%	1.8%	Cc1cc(C)n(-c2ccc(NC(=O)C3CCCCN3C(=O)c3ccc(C)s3)cc2)n1 (centres undefined)
-14%	-4	-10%	-0.1%	COc1cc(-c2nn3c(Cc4ccccc4)nnc3s2)cc(OC)c1OC
-2%	7	-39%	-1.4%	COc1ccc(-c2nnc(SCC(=O)/C(C#N)=C(\C)N)o2)cc1
0%	-5	2%	-1.6%	Cc1ccccc1NS(=O)(=O)c1ccc(F)cc1
-8%	4	-68%	1.0%	COc1ccc(Nc2nc(N)nc(SCc3nnc(C)s3)n2)cc1
-15%	1	1%	-1.2%	Cc1c(C#N)sc(C(N)=O)c1C
37%	.	.	-0.3%	CCOc1ccccc1C(=O)N[C@H](C(=O)OCC(=O)Nc1nnc(-c2ccccc2)o1)C(C)C
24%	-5	-1%	-2.7%	COc1cccc(NC(=O)C(NCCC(C)C)c2ccccc2)c1 (centres undefined)
-3%	8	-6%	-0.1%	COc1cccc(-c2nnc(SCC(=O)Nc3cc(C)ccc3OC)n2N)c1
-11%	.	-1%	-3.0%	COc1cccc(NC(=O)CS(=O)(=O)c2cccc3nsnc23)c1
-5%	.	-8%	2.1%	COc1ccc(-c2nn(-c3ccccc3)cc2/C=C2/SC(=S)N(CCCC(=O)O)C2=O)c(C)c1
-3%	.	-31%	-2.5%	CCOc1ccc(/C=N/Nc2ccccc2)cc1
5%	7	-4%	3.7%	COCCNC(=O)C(C)OC(=O)c1cc2occc2n1C (centres undefined)

Fetched one by one from above, 3 records:
Rango dissoc inh	GLA inh pH 4.5	miR-21 FLuc	Rango complex inh	structure
-6%	0	-2%	0.0%	Cc1cc(NC(=O)COn2nnc3ccc(Cl)cc32)no1
-3%	.	-31%	-2.5%	CCOc1ccc(/C=N/Nc2ccccc2)cc1
-5%	.	-8%	2.1%	COc1ccc(-c2nn(-c3ccccc3)cc2/C=C2/SC(=S)N(CCCC(=O)O)C2=O)c(C)c1

Individual results from the results shown.
COc1ccc(-c2nnc(SCC(=O)/C(C#N)=C(\C)N)o2)cc1 in GLA inh pH 4.5 → 7
Cc1ccc(C(=O)NCC2CCCO2)cc1[N+](=O)[O-] (centres undefined) in GLA inh pH 4.5 → 2

(list continues)
Rango dissoc inh	GLA inh pH 4.5	miR-21 FLuc	Rango complex inh	structure
17%	.	-6%	-3.7%	O=C(CCC(=O)Nc1nnc(C2CCCCC2)s1)Nc1ccc(F)cc1
9%	.	5%	5.3%	Cn1cccc1/C=N\NC(=O)C1COc2ccc(C(C)(C)C)cc2O1 (centres undefined)
0%	-7	-1%	0.3%	CCOC(=O)c1ccccc1NC(=O)c1cn(CC)c2nc(C)ccc2c1=O
-2%	-2	-4%	?	CCOC(=O)N1CCN(C(=O)c2cn(C)c3ccc(S(=O)(=O)N4CCC(C)CC4)cc3c2=O)CC1
-1%	3	-13%	0.2%	COC(=O)c1c(C)[nH]c(C(=O)COC(=O)Cc2ccc3c(c2)OCCO3)c1C
1%	-1	-9%	1.9%	COc1cc(OC)c(NC(=O)CCc2ccccc2)cc1Cl
7%	-8	-52%	4.7%	COc1ccc2c(c1OC)C(=O)OC2Nc1nc(-c2ccc(-c3ccccc3)cc2)cs1 (centres undefined)
0%	.	0%	-1.3%	S=C(c1ccccc1)N1CCCC1
1%	-12	25%	2.7%	C[n+]1c2n(c3ccccc31)N=C(c1ccc(Br)cc1)CS2
14%	-17	-6%	5.7%	COc1ccc(C2C(C(N)=O)=C(C)Nc3nc(-c4ccccc4Cl)nn32)c(OC)c1 (centres undefined)

High-throughput results from PubChem BioAssay.
